High-throughput results: PubChem, National Center for Advancing Translational Sciences (NCATS)
LT uptake inh: inhibitors of anthrax lethal toxin internalization | Cells, anthrax lethal toxin internalization, FRET ratio (460/530) | Potency, µM (doses to about 40 µM), without a hit: at the top dose activity change, negative = inhibition, hits mostly inhibitors | actives 0.67% (n = 70,000); active = well fitted falling ratio curve with the 530 nm signal flat; inconclusive = other ratio curves, or a change in one channel alone; inactive = flat curves in the ratio and both channels; the % refers to the ratio; further: on the % scale 0 is the no-effect control and ±100 the full control effect; nearly all actives have a fitted effect of over 50% in size; tested in ME-180 cells; beta-lactamase reporter
Prx2 Sm inh: blocks S. mansoni peroxiredoxin 2 enzymatic activity; S. mansoni Prx2 activity coupled to TGR/GSH (TGR is thioredoxin glutathione reductase), NADPH fluorescence loss, qHTS; some inactives read as strong as hits; Potency, µM; actives 0.07% (n = 65,000); AID 448; active means full or partial inhibition curve with a strong effect at the top dose; inconclusive means weaker partial or single-point curve; inactive means no accepted curve; further: series up to 57 µM; many of its hits are not listed in these tables
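Prx2 inhibition was measured as reduced NADPH consumption when electrons flowed from NADPH through TGR and glutathione to Prx2 and H2O2. Plates were read kinetically over 8 min; enzyme reagents were held at 4 deg C during dispensing.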
* hit, by the source's call; & = joins results of further samples; [ ] = another dose, or the depositor's remark. Potency means the concentration at half of the fitted maximal effect. These rows are one share of the data; count on the stated rates, not on these rows.

For COc1ccccc1NC(=O)CC1C(=O)NCCN1C(=O)Nc1ccc(Cl)c(Cl)c1 (configuration not stated) the results were LT uptake inh 2% and Prx2 Sm inh >57.
Screening COc1cccc(-c2cc(C(=O)N3CCCCCC3)no2)c1 returned LT uptake inh -10% and Prx2 Sm inh >57.
Screening Cn1c(O)c(/C=N/c2ccccn2)c(=O)n(C)c1=O returned LT uptake inh 16% and Prx2 Sm inh >57.
CC(=O)c1c(C)nc2nonc2c1N was read as LT uptake inh 2% and Prx2 Sm inh >57.
CSc1cccc(NC(=O)CN(c2ccc(C)cc2C)S(C)(=O)=O)c1 was read as LT uptake inh inconclusive.
For CCOc1ccc(C2N(c3ccc(F)cc3)C(=O)C3CCCN32)cc1 (configuration not stated) the results were LT uptake inh -5% and Prx2 Sm inh >57.
For CCn1c(-c2ccc(N(C)C)cc2)nc2ccccc21 the results were LT uptake inh -18% and Prx2 Sm inh >57.
For COc1cc(OC)cc(C(=O)NCC(=O)N2CCCCC2)c1 the results were LT uptake inh -25% and Prx2 Sm inh >57.
Screening Cc1cc(C(=O)CSCCCn2c(=O)[nH]c3ccccc32)c(C)n1C returned LT uptake inh inconclusive and Prx2 Sm inh >57.
For O=C(C1CC1)N1CCc2cc(S(=O)(=O)NC3CCN(Cc4ccccc4)CC3)ccc21 the results were LT uptake inh -4% and Prx2 Sm inh >57.
Screening COc1ccc2c(c1)c1ncn(Cc3ccco3)c(=O)c1n2C returned Prx2 Sm inh >57.
`CCCCn1nnnc1NCc1cc(OC)c(OC)c(OC)c1` gave LT uptake inh inconclusive and Prx2 Sm inh >57.
For CC(C)CSc1nnc2[nH]c(=O)cc(N)n12 the results were LT uptake inh 2% and Prx2 Sm inh >57.
For c1ccc2c(c1)OCC(c1nnc3n1-c1ccccc1SC3)O2 (configuration not stated) the results were LT uptake inh -24% and Prx2 Sm inh >57.
For O=C(N1CCOCC1)N1CCOCC1 the results were LT uptake inh -4% and Prx2 Sm inh >57.
`O=C(CSc1nnc(COc2ccccc2)n1-c1ccccc1)c1cccs1` gave LT uptake inh -21%.
Screening CCCC(=O)Nc1cc(C)c(NC(=O)c2ccccn2)cn1 returned LT uptake inh -2% and Prx2 Sm inh >57.
Screening CC(NC(=O)Cc1cccs1)C(c1cccs1)N1CCN(c2ccccc2F)CC1 (configuration not stated) returned LT uptake inh -25% and Prx2 Sm inh >57.
Screening Cc1cc(NS(=O)(=O)c2ccccc2)c(C)c(Cl)c1O returned LT uptake inh inconclusive and Prx2 Sm inh >57.
Screening Cn1c(=O)c2c(nc(NCCc3ccccc3)n2Cc2ccccc2)n(C)c1=O returned LT uptake inh -59% and Prx2 Sm inh >57.
Screening Cc1oc2ccc(OC(=O)N(C)C)cc2c1C(=O)OC(C)C returned LT uptake inh 12% and Prx2 Sm inh >57.
For COCC(=O)/C=C1\Sc2ccccc2N1C the results were LT uptake inh -19% and Prx2 Sm inh >57.
Screening OC(CNc1nc2ccccc2s1)c1ccccc1 (configuration not stated) returned LT uptake inh -13% and Prx2 Sm inh >57.
CC(C)(C)NC(=O)CN(Cc1cccnc1)C(=O)c1csnn1 was read as LT uptake inh -24% and Prx2 Sm inh >57.
`CCOP(=S)(OCC)c1ccc(N(C)C)cc1` gave LT uptake inh -11% and Prx2 Sm inh >57.
`CCCn1c(=N)c(C(=O)NCc2ccc3c(c2)OCO3)cc2c(=O)n3cccc(C)c3nc21` gave LT uptake inh 0% and Prx2 Sm inh >57.
For Cc1cc(C)nc(N2CCCC(C(=O)NCCc3cccc(F)c3)C2)n1 (configuration not stated) the results were LT uptake inh -2% and Prx2 Sm inh >57.
Screening C[C@H](NCCC(c1ccccc1)c1ccccc1)c1ccccc1 returned LT uptake inh 2%[3.58 µM] and Prx2 Sm inh >26.
`CC(C)(C)n1nnnc1CN1CCC(NC(=O)NC2CCCCC2)CC1` gave LT uptake inh 5% and Prx2 Sm inh >57.
`O=C1CC(=O)N(CCc2ccccc2)C(=O)N1CCc1ccccc1` gave LT uptake inh inconclusive and Prx2 Sm inh >57.
Screening Cc1ccc(SC(C)C(=O)Nc2ncn[nH]2)cc1 (configuration not stated) returned LT uptake inh 6% and Prx2 Sm inh >57.
C=C[C@]1(C)C[C@H](OC(=O)CO)[C@]2(C)C3C(=O)CC[C@]3(CC[C@H]2C)[C@H](C)[C@H]1O (some centres not stated) was read as LT uptake inh -11%[8 µM] and Prx2 Sm inh >57.
`O=C(O)CCCc1ccc(N(CCCl)CCCl)cc1` gave LT uptake inh -2% and Prx2 Sm inh >57&>57.
`O=C(CSc1nnc(COc2ccccc2)n1Cc1ccco1)NCc1ccco1` gave LT uptake inh -4% and Prx2 Sm inh >57.
`Cc1cc(C)n(-c2ccc(C(=O)OCC(=O)NCc3ccco3)cc2)n1` gave LT uptake inh 6% and Prx2 Sm inh >57.
For c1cncc(-c2nnc(-c3ccco3)o2)c1 the results were LT uptake inh 12% and Prx2 Sm inh >57.

Sorted by SMILES length (rising): part of the list above
`CCOP(=S)(OCC)c1ccc(N(C)C)cc1` gave LT uptake inh -11% and Prx2 Sm inh >57.
`O=C(O)CCCc1ccc(N(CCCl)CCCl)cc1` gave LT uptake inh -2% and Prx2 Sm inh >57&>57.
`CC(C)(C)n1nnnc1CN1CCC(NC(=O)NC2CCCCC2)CC1` gave LT uptake inh 5% and Prx2 Sm inh >57.
For Cc1cc(C)nc(N2CCCC(C(=O)NCCc3cccc(F)c3)C2)n1 (configuration not stated) the results were LT uptake inh -2% and Prx2 Sm inh >57.
`Cc1cc(C)n(-c2ccc(C(=O)OCC(=O)NCc3ccco3)cc2)n1` gave LT uptake inh 6% and Prx2 Sm inh >57.
C=C[C@]1(C)C[C@H](OC(=O)CO)[C@]2(C)C3C(=O)CC[C@]3(CC[C@H]2C)[C@H](C)[C@H]1O (some centres not stated) was read as LT uptake inh -11%[8 µM] and Prx2 Sm inh >57.

Next compounds follow:
Clc1cccc(Cl)c1NC1=NCCN1 was read as LT uptake inh -19% and Prx2 Sm inh >57&>57&>57.
`CCOC(=O)c1cccc(NC(=O)Cn2cnc3c2c(=O)n(C)c(=O)n3C)c1` gave LT uptake inh -1%.
CCOC(=O)N1CCN(c2c(Nc3cc(C)[nH]n3)c(=O)c2=O)CC1 was read as LT uptake inh -5% and Prx2 Sm inh inconclusive.
COCCn1c(=O)c(-c2ccc(OC)cc2)nc2cnc(N3CCOCC3)nc21 was read as LT uptake inh inconclusive and Prx2 Sm inh >57.
`C[N+]1(C)[C@@H]2CC[C@H]1CC(OC(=O)c1c[nH]c3ccccc13)C2` (some centres not stated) gave LT uptake inh 8% and Prx2 Sm inh >57.
`CC(=O)N(C)c1ccc(NC(=O)c2ccccc2C(=O)O)cc1` gave LT uptake inh 2% and Prx2 Sm inh >57.
CC1CC(C)CN(c2ncc3c(n2)CC(c2ccc(Cl)cc2)CC3=O)C1 (configuration not stated) was read as LT uptake inh inconclusive and Prx2 Sm inh >57.
For O=S(=O)(Nc1ccc(F)cc1)N1CCCCCC1 the results were LT uptake inh 16% and Prx2 Sm inh >57.
For COc1ccccc1NC(=O)CCN1C(=O)C2CC=C(Cl)CC2C1=O (configuration not stated) the results were LT uptake inh 0% and Prx2 Sm inh >57.
For CCOc1ccc(OCC)c(NC(=O)CN(C)S(=O)(=O)c2cccc3nsnc23)c1 the results were LT uptake inh -22% and Prx2 Sm inh >57.
COC(=O)CC1=C(C)C(=O)CC2C(C)(C)CCCC12C (configuration not stated) was read as LT uptake inh 2%.
For COC(=O)c1ccccc1NC(NC(=O)c1ccco1)C(=O)c1ccccc1 (configuration not stated) the results were LT uptake inh -20% and Prx2 Sm inh >57.

Entries shown so far that have a COOH group:
`O=C(O)CCCc1ccc(N(CCCl)CCCl)cc1` gave LT uptake inh -2% and Prx2 Sm inh >57&>57.
`CC(=O)N(C)c1ccc(NC(=O)c2ccccc2C(=O)O)cc1` gave LT uptake inh 2% and Prx2 Sm inh >57.

(further entries)
For COc1ccc(C2(NC(C)=O)CCN(C(=O)CCC(=O)O)CC2)cc1 the results were LT uptake inh 11% and Prx2 Sm inh >57.
Screening COc1ccc(N(C(C)=O)S(=O)(=O)c2cc(OC)ccc2OC)cc1 returned LT uptake inh -9% and Prx2 Sm inh >57.
O=C(Nc1ccc2c(c1)OCO2)c1ccc(Br)s1 was read as LT uptake inh inconclusive and Prx2 Sm inh >57.
`COc1ccc(C(=O)N2CCC[C@@]3(CCN(Cc4ccncc4)C3)C2)cc1` gave LT uptake inh 23% and Prx2 Sm inh >57.
`CC(C)CC(NS(=O)(=O)c1ccc2c(c1)oc(=O)n2C)C(=O)NCc1cccnc1` (configuration not stated) gave LT uptake inh -7% and Prx2 Sm inh >57.
`Nc1ncn([C@@H]2O[C@@H](CO)[C@@H](O)[C@H]2O)c(=O)n1` gave LT uptake inh -21% and Prx2 Sm inh >57.
Screening COc1cccc(C2C(C(=O)c3cc4ccccc4o3)=C(O)C(=O)N2c2cc(C)on2)c1OC (configuration not stated) returned LT uptake inh inconclusive and Prx2 Sm inh >57.
Screening Cc1nc(-c2ccccc2O)n(S(=O)(=O)N(C)C)n1 returned LT uptake inh -4% and Prx2 Sm inh >57.
CCC(C)[C@H](NC(=O)NC1CC1)C(=O)O (some centres not stated) was read as LT uptake inh inconclusive and Prx2 Sm inh >57.
`COc1ccc(C(C(C(=O)c2ccco2)N2CCOCC2)N2CCOCC2)cc1` (configuration not stated) gave LT uptake inh -3% and Prx2 Sm inh >57.
Screening CC(=O)c1cccc(NC(=O)CN(Cc2ccccc2)S(C)(=O)=O)c1 returned LT uptake inh 2% and Prx2 Sm inh >57.
COc1ccc(NC(=O)CSc2nccc(C)n2)cc1 was read as LT uptake inh -4% and Prx2 Sm inh >57.
Screening COC(=O)c1sc(N)c(C(=O)OC)c1COC(=O)C1CC(=O)N(Cc2ccco2)C1 (configuration not stated) returned LT uptake inh -15% and Prx2 Sm inh >57.
COc1ccc(OCc2nnc3n2N=C(c2ccc(C)cc2)CS3)cc1 was read as LT uptake inh -8% and Prx2 Sm inh >57.
`CC1C(=O)OC2C(O)C34C5CC(C(C)(C)C)C36C(OC(=O)C6O)OC4(C(=O)O5)C12O` (configuration not stated) gave LT uptake inh -12% and Prx2 Sm inh >57.
`Cn1nccc1C(=O)c1ccc(Cl)cc1` gave LT uptake inh -14% and Prx2 Sm inh >57.
For CCOc1ccc(NC(=O)CN2CCN(CC(=O)Nc3cccc(F)c3)CC2)cc1 the results were LT uptake inh 18% and Prx2 Sm inh >57.
`NC(=O)c1cc2n(n1)C(C(F)(F)F)CC(c1ccco1)N2` (configuration not stated) gave LT uptake inh -15% and Prx2 Sm inh >57.
COc1cccc(C2CC(c3ccc(Cl)cc3Cl)n3nc(N)nc3N2)c1 (configuration not stated) was read as LT uptake inh 3% and Prx2 Sm inh >57.
Screening COCCn1c(=O)c(-c2ccc(OC)cc2)nc2cnc(N3CCNCC3)nc21 returned LT uptake inh inconclusive and Prx2 Sm inh >57.
Cc1nc(=S)n(-c2ccccc2)[nH]1 was read as LT uptake inh -7% and Prx2 Sm inh >57.
`O=C(COc1ccccc1)N1CCN(c2ncnc3c2cnn3-c2ccccc2)CC1` gave LT uptake inh -6% and Prx2 Sm inh >57.
`C[C@H](C(=O)O)c1n[nH]c(=O)c2ccccc12` gave Prx2 Sm inh >57.
For Clc1ccccc1-c1nccc(NCCN2CCOCC2)n1 the results were LT uptake inh -2% and Prx2 Sm inh >57.

Fetched one by one from above, 2 records:
Screening Cc1ccc(SC(C)C(=O)Nc2ncn[nH]2)cc1 (configuration not stated) returned LT uptake inh 6% and Prx2 Sm inh >57.
Screening COc1cccc(-c2cc(C(=O)N3CCCCCC3)no2)c1 returned LT uptake inh -10% and Prx2 Sm inh >57.

Following part.
COCC(=O)N1CCC2(CC1)CN(C(=O)Nc1ccc(OC)cc1)C2 was read as LT uptake inh 5% and Prx2 Sm inh >57.
Screening c1ccc2c(Cn3ccnc3)c[nH]c2c1 returned LT uptake inh -11%.
For O=C(c1noc2c1CCCC2)N1CCN(c2ccccc2)CC1 the results were LT uptake inh -5% and Prx2 Sm inh >57.
Screening O=C(O)C1(Nc2ccc(Cl)cc2)CCCC1 returned LT uptake inh -2%[8 µM] and Prx2 Sm inh >57.
`CSc1nc(C)cc(Nc2ccc(O)c(CN3CCCCC3)c2)n1` gave LT uptake inh inconclusive and Prx2 Sm inh >57.
`O=C(NC1CCCC1)C(c1ccncc1)N(Cc1cccs1)C(=O)c1csnn1` (configuration not stated) gave LT uptake inh -30% and Prx2 Sm inh >57.
`N#CCCCSc1ncccc1-c1nc2ccccc2[nH]1` gave LT uptake inh 12% and Prx2 Sm inh >57.
Screening Fc1ccc(CN(C2=NCCN2)c2c(Cl)cccc2Cl)cc1 returned LT uptake inh inconclusive and Prx2 Sm inh >57.
For COc1cc(C2NC(C(=O)O)Cc3c2[nH]c2ccccc32)cc(OC)c1OC (configuration not stated) the results were LT uptake inh -2%[8 µM].
For C=C1[C@@H]2CC[C@H]3[C@@]4(C)C[C@@H](O[C@@H]5O[C@H](CO)[C@H](OS(=O)(=O)O)[C@@H](OS(=O)(=O)O)[C@@H]5OC(=O)CC(C)C)C[C@@H](C(=O)O)[C@H]4CC[C@@]3(C2)[C@H]1O the results were LT uptake inh -4%[3.58 µM] and Prx2 Sm inh >57.
Screening COCCCNC(=O)C1CCCCN1S(=O)(=O)c1ccc(F)cc1 (configuration not stated) returned LT uptake inh -17% and Prx2 Sm inh >57.
